TSHR agonist: agonists of human thyroid stimulating hormone receptor; P16473; HEK293-CNG-TSHR cells (CNG channel as cAMP sensor), membrane potential dye, cAMP; Potency, µM (top dose mostly 57.1 µM), without a hit: top-dose activation, most hits filed as activators; 73,000 compounds, 0.48% hits; AID 926; active = well fitted activation curve of enough size with the parental cells flat; inconclusive = any curve in the parental cells; inactive = parental cells flat and receptor cells flat or falling; note: potency is the fitted concentration of half-maximal effect; % of control where 0% means no effect; weak receptor curves with flat parental cells got no call and are not listed
Target sequence (P16473 whole entry, looked up): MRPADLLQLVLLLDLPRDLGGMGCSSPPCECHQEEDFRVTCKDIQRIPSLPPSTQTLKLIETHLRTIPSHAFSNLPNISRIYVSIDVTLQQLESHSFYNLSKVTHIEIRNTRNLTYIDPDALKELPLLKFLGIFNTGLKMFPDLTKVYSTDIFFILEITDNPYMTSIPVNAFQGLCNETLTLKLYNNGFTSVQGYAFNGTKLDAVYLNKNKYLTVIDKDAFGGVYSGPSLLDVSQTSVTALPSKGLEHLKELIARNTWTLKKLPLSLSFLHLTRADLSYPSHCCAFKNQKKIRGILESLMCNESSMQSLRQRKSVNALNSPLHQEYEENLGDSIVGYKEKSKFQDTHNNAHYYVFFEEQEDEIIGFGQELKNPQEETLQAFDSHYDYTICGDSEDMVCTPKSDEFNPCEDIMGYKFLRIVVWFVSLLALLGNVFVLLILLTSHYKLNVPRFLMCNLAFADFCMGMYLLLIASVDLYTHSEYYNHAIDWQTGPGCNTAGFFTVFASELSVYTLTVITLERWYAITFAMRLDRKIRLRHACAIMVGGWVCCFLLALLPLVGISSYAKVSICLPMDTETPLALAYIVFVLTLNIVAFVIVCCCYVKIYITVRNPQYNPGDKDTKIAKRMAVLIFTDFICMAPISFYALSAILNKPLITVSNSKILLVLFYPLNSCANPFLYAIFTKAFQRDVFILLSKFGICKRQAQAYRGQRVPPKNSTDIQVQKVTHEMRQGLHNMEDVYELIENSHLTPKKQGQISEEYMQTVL
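HEK 293 cells stably expressing TSHR and a cAMP-gated CNG channel; parental CNG-only cells as counterscreen. Cells preloaded 60 min with membrane potential dye plus 100 uM RO 20-1724, then compound 30 min; fluorescence read at 590 nm.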
AID923: qHTS Assay for Allosteric/Competitive Inhibitors of Caspase-1: Spectroscopic Profiling in AFC Spectral Region. compound fluorescence, AFC spectral region (405/520 nm); almost no hit is shown here. Potency, µM (top dose mostly 57.5 µM), inactives show top-dose fluorescence increase, hits mostly activators. 75,000 compounds, 1.1% hits. AID 923, 2007; active = well fitted activation curve with a large enough effect; inconclusive = small, poorly fitted or top-dose-only effect;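 note: potency is the fitted concentration of half-maximal effect; 0% is about no effect; scaled to a free AFC standard on each plate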
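Compound autofluorescence profiled at 405 nm ex/520 nm em during kinetic caspase 1 run (50 nM enzyme, 5 uM Ac-WEHD-AFC, HEPES pH 7.5, 10 mM DTT). Titration up to 57 uM; baseline from regression intercept, normalized to AFC standard curve.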
Resorufin fluor: resorufin region autofluorescence | 59,000 compounds, 0.04% hits | AID 588 | max dye-equivalent concentration, M | Compound fluorescence, resorufin region 547/598 nm, buffer; hits give high values; active = above 10 nM dye equivalent; inconclusive = 1 to 10 nM; inactive = 1 nM or less; a few of its hits are not listed in these tables; note: highest value over a series up to 38 µM
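Compounds in 100 mM Tris, pH 8.0, incubated 15 min at room temperature, then fluorescence read at 547 nm excitation/598 nm emission. Signal converted to dye-equivalent concentration via an on-plate six-point resorufin standard curve, per compound concentration.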
A488 autofl: A488 region autofluorescence | compound autofluorescence, A488 spectral region, dye equivalency; hits give high values | max dye equivalency, M | 59,000 compounds, 0.1% hits; active = above 10 nM dye equivalent; inconclusive = 1 to 10 nM; inactive = 1 nM or less; about half of its hits are not listed in these tables;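 note: highest value over a series up to 38 µM; compound alone in buffer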
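Intrinsic compound fluorescence is measured in 100 mM Tris buffer at pH 8.0 following 15 min incubation at room temperature. Intensities at 480 nm excitation/540 nm emission are calibrated to an on-plate A488 concentration series, giving dye-equivalent concentrations.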
A647 fluor: A647 region autofluorescence. Compound fluorescence, A647 channel (570/671 nm), Tris buffer. AID 592. max dye-equivalent concentration, M. 59,000 tested, under 10 active; active means above 1 µM dye equivalent; inconclusive means 0.1 to 1 µM; inactive means 0.1 µM or less;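 note: values scaled relative to a standard on each plate; highest value over a series up to 38 µM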
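Compound fluorescence was measured in 100 mM Tris buffer, pH 8.0, after 15 min at room temperature, using 570 nm excitation and 671 nm emission filters. Signal was normalized to a per-plate Alexa 647 standard curve and expressed as dye-equivalent concentration at each compound concentration.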
Starred values were filed as active, the others as inactive; i = inactive; u = inconclusive; x = no result given; & = joins results of further samples; [ ] = dose if it differs, or a comment. This is a subset; count on the stated rates, not on these rows.

| compound | TSHR agonist | AID923 | Resorufin fluor | A488 autofl | A647 fluor |
| --- | --- | --- | --- | --- | --- |
| CC(C)(C)c1nnc2sc(SCCN3C(=O)c4ccccc4C3=O)nn2c1=O | -2%[11.4 µM] | 0.0% | i | i | 5.4e-09 |
| CCCCCNC(CC(=O)Nc1ccc(OC)cc1)C(=O)O (stereo not drawn) | -2% | 1.9% | i | i | 5.4e-09 |
| Cc1ccc(S(=O)(=O)Nc2nonc2C)cc1 | 1% | 0.3% | i | i | 1e-08 |
| CCS(=O)(=O)N1CCCC(C(=O)N2CCc3ccccc3C2)C1 (stereo not drawn) | -2% | -1.5% | i | i | 2e-08 |
| COC(=O)C(O)(CC(=O)Nc1cccc(SC)c1)C(F)(F)F (stereo not drawn) | 4% | -1.1% | i | i | 1e-09 |
| O=C1CCC[C@@H](C(C(=O)OCc2ccccc2)C(=O)OCc2ccccc2)C1 | 16%[11.4 µM] | 2.1%[11.5 µM] | x | x | x |
| O=C1CC(c2ccco2)CC2=C1C1c3ccccc3C(=O)N1c1ccccc1N2 (stereo not drawn) | -1% | -0.1% | x | x | x |
| O=C1CC(c2ccccc2)Cc2nc(NCc3ccco3)ncc21 (stereo not drawn) | 19% | -1.3% | i | i | 4e-09 |
| O=C(NCCCN1CCOCC1)[C@@H]1CSC2c3ccccc3C(=O)N21 (stereo partly drawn) | 2% | 0.4% | i | i | 3.4e-09 |
| O=C(NCC(c1cccnc1)N1CCOCC1)c1ccc2c(c1)OCO2 (stereo not drawn) | 7% | 0.6% | i | i | 1e-08 |
| CCN1CCN(C(c2cccs2)C(C)NC(=O)c2ccccc2)CC1 (stereo not drawn) | 16% | 4.6% | x | x | x |
| COc1cc(OC)cc(-n2c3nc4ccccc4nc3c3c(=O)n(CC4CCCO4)cnc32)c1 (stereo not drawn) | 21% | 5.0% | i | i | 3.7e-08 |
| O=C1NC2NC(=O)N(C(Cc3ccccc3)C(=O)O)C2N1 (stereo not drawn) | 4%[11.4 µM] | 2.0% | x | x | x |
| CCOc1cc(S(=O)(=O)NC2CCCCCC2)ccc1F | u | 0.8% | i | i | 1e-09 |
| CCOc1cccc(C2c3c(oc4ccccc4c3=O)C(=O)N2c2ccccn2)c1 (stereo not drawn) | -5% | -0.6% | x | x | x |
| CCOc1ccccc1-n1c(SCC(=O)N2CCOCC2)nnc1-c1ccccn1 | 0% | -0.3% | i | i | 2.3e-08 |
| COCCOC(=O)C1=C(C)NC(C)=C(C(=O)OC(C)C)C1c1cccc([N+](=O)[O-])c1 (stereo not drawn) | x | x | i | i | 1e-09 |
| Cc1cc(NS(=O)(=O)c2cccs2)no1 | -1% | -1.3% | i | i | 2e-08 |
| COC(=O)c1cc2oc3ccccc3c2n1Cc1ccccn1 | x | -2.4% | i | i | 3.3e-08 |
| CC(=O)Nc1nnc(SCC(=O)NCCOc2ccccc2)s1 | 1% | -0.6% | x | x | x |
| Cn1c(/N=C/c2cccs2)nc2ccccc21 | 6% | 1.5% | x | x | x |
| Clc1ccc(OCCn2cnc3ccccc32)cc1 | 11% | -2.4% | i | i | 3.1e-09 |
| CO[C@@H]1COC(=O)[C@H]2CCCN2C(=O)[C@@H](C)COC(=O)CCC[C@H]1C | 0%[11.4 µM] | -1.5%[11.5 µM] | x | x | x |
| O=c1onc2cnc3ccccc3n12 | 13%&5% | -5.3% | i | i | 1.2e-08 |
| COc1cccc(NC(=O)CN(c2cccc(F)c2)S(C)(=O)=O)c1 | x | -2.6% | i | i | 1.3e-09 |
| COCCn1c(SCc2cnc(-c3ccccc3)s2)nnc1-c1ccncc1 | u | -0.4% | i | i | 1.9e-08 |
| COc1ccc(C2CC(c3ccccc3)Nc3nc(NC(=O)c4ccco4)nn32)cc1 (stereo not drawn) | -8% | 0.1% | i | i | 1.7e-09 |
| O=C(c1cccnc1)N(Cc1ccccc1)c1ccccc1 | u | -1.9% | i | i | 2.4e-08 |
| COC(=O)c1nc2n(n1)C(c1ccc(OC)c(OC)c1)C(C(=O)OC1CCCCC1)=C(C)N2 (stereo not drawn) | u | 1.0% | i | i | 1.9e-09 |
| CN1CCN(C2=C(Cl)C(=O)N(CCc3ccccc3)C2=O)CC1 | 3% | 5.8% | i | i | 1e-09 |
| COc1cccc(-n2nnc3c(=O)n(Cc4ccc(Br)cc4)cnc32)c1 | u | 2.7% | i | i | 4.5e-09 |
| O=C(Cn1c(=O)n(CCCC(=O)NC2CCCC2)c(=O)c2ccccc21)NCCC1=CCCCC1 | 18%[11.4 µM] | -0.1% | i | i | 6.1e-09 |
| Cc1n[nH]c(C)c1S(=O)(=O)Nc1ccc2c(c1)OCCO2 | -4% | 4.3% | i | i | 5.4e-09 |
| COC(=O)[C@@]1(Cc2ccc(F)cc2)[C@H]2c3cc(C(=O)N(C)C)n(CCO)c3C[C@H]2CN1C(=O)c1ccccc1 | -4% | 3.3% | x | x | x |
| CCOCCCNC(=O)CC1Oc2ccc(C)cc2NC1=O (stereo not drawn) | -2% | 3.4% | x | x | x |
| Cc1ccnc(NC(=O)CCCOc2cc(=O)n(C)c3ccccc23)c1 | 1%[11.4 µM] | -1.3% | i | i | 2.2e-08 |
| CSc1nnc(C)c(=O)[nH]1 | x | x | i | i | 5.3e-08 |
| Cc1ccc2nc(-c3ccc(NC(=O)CN4CCN(C(=O)c5ccco5)CC4)cc3)sc2c1 | 4%[11.4 µM] | 8.5% | x | x | x |
| c1ncc(CC2CCNCC2)[nH]1 | 6% | 0.6% | x | x | x |
| O=C(Nc1nc2c(s1)CCCC2)c1cccnc1 | -4% | -5.8% | x | x | x |
| O=S(=O)(c1ccccc1)N1CCN(S(=O)(=O)c2ccccc2)C1 | 1%[11.4 µM] | 0.6% | x | x | x |
| COc1cc(-c2nnc3sc(Cc4ccc(Cl)cc4)nn23)cc(OC)c1OC | u | 1.3% | i | i | 7e-09 |
| CC1CN(Cc2cc(=O)n3ccsc3n2)CC(C)O1 (stereo not drawn) | -6% | 0.6% | i | i | 4e-08 |
| CCS(=O)(=O)N1CCCC(C(=O)NCC2CCCO2)C1 (stereo not drawn) | u | -0.7% | i | i | 1.6e-08 |
| Cc1ccc(CNc2ccc3c(c2)OCO3)c(C)c1 | -12% | 15% | i | i | 3e-09 |
| O=C(Nc1ccccc1)N(CCN1CCOCC1)Cc1ccccc1F | 12% | 1.5% | i | i | 2.3e-08 |
| Cn1nc(C(=O)Nc2ccc(S(=O)(=O)N3CCCC3)cc2)ccc1=O | 1% | -0.5% | i | i | 2.1e-08 |
| CN(C)c1ccc(-c2cncnc2NCCc2cnc[nH]2)cc1 | 6% | 0.3% | i | i | 4e-08 |
| O=S(=O)(NCCc1ccncc1)c1cc(Br)ccc1F | -11% | -1.1% | i | i | 8.9e-09 |
| Cc1cc(C(C#N)c2ccccc2)n2ncnc2n1 (stereo not drawn) | -1% | 1.0% | i | i | 4.6e-08 |

Next section
| compound | TSHR agonist | AID923 | Resorufin fluor | A488 autofl | A647 fluor |
| --- | --- | --- | --- | --- | --- |
| Cc1cc(C)c2cc(CN(CCO)C(=O)Nc3ccc(F)cc3)c(=O)[nH]c2c1 | 5% | -0.9% | i | i | 6.2e-09 |
| Cc1cc(CN2C(=O)c3ccccc3C2=O)cc(N2CCOCC2)c1 | 27%[11.4 µM] | 0.1% | x | x | x |
| C=CCn1c(COc2ccccc2F)nnc1SCC(=O)NC(=O)NCc1ccco1 | 4% | -0.2% | i | i | 4.1e-08 |
| CCOC(=O)c1c(NC(=O)CSc2nnc(-c3ccc(OC)cc3)o2)sc2c1CCC2 | u | 0.5% | i | i | 4.4e-08 |
| C=CCNC(=O)C1CCN(S(=O)(=O)CC)CC1 | 9% | 0.9% | i | i | 1e-09 |
| O=C(CSc1ncn[nH]1)NC1CC2CCC1C2 (stereo not drawn) | 0% | 3.8% | i | i | 5e-09 |
| COCCn1nnnc1C(c1ccccc1)N1CCN(Cc2ccc3c(c2)OCO3)CC1 (stereo not drawn) | u | -2.2% | i | i | 2.8e-08 |
| CC(=O)N(CC(=O)O)c1ccccc1C(=O)O | -4% | 0.6% | x | x | x |
| COC(=O)[C@H](Cc1ccccc1)NC(=O)NCc1ccc(S(N)(=O)=O)cc1 | -3% | -1.0% | i | i | 1.5e-08 |
| N#Cc1cc2sc3nnc(-c4ccncc4)n3c2cc1C#N | -3% | 0.4% | i | i | 4.9e-09 |
| CC1(C)Oc2ccc3ccc(=O)oc3c2/C(=C/N)C1=O | u | -0.7% | x | x | x |
| COc1ccc(C(=O)Nc2ccc(S(=O)(=O)N3CCOCC3)cc2)cc1OC | -2% | 1.5% | x | x | x |
| CCCCCCc1cc2cc(-c3nnc(-c4ccccc4O)o3)c(=O)oc2cc1O | x | x | i | i | 4.3e-08 |
| COc1ccc(NC(=O)C2CCCN(S(=O)(=O)c3cnc[nH]3)C2)cc1 (stereo not drawn) | 1% | 2.2% | x | x | x |
| COc1ccc(/C=N/n2c(=O)[nH]c3c([nH]c4ccc(C)cc43)c2=O)cc1CN1CCOCC1 | -8% | 1.1% | i | i | 1e-09 |
| COc1ccc(CNC(=O)c2cc(-c3cccc(OC)c3)on2)cc1 | 21% | -0.8% | x | x | x |
| CNc1nc2c(c(=O)n(C)c(=O)n2C)n1Cc1ccccc1 | 1% | 0.5% | i | i | 1e-09 |
| OC(COc1ccc2cc(Br)ccc2c1)CN1CCCC1 (stereo not drawn) | 4% | -1.3% | i | i | 1e-09 |
| O=C(COc1ccccc1O)Nc1ccc(Cl)cc1 | -3% | 0.1% | i | i | 1.9e-09 |
| O=C(Nc1ccc2c(c1)OCO2)c1cc2n(n1)C(C(F)(F)F)CC(c1ccccc1)N2 (stereo not drawn) | x | x | i | i | 8.2e-08 |
| C=CCn1c(SCC(=O)Nc2cc(NC(C)=O)ccc2OC)nnc1-c1ccccn1 | 3% | -1.8% | i | i | 1.5e-08 |
| CCn1cc(C2=NOC(C(=O)Nc3cc(C)nn3-c3ccccc3)C2)c(C)n1 (stereo not drawn) | -2% | -0.8% | x | x | x |
| O=C(CCNc1n[nH]c(=O)[nH]c1=O)N1CCOCC1 | 1% | 0.9% | i | i | 1.4e-08 |
| COc1ccccc1C(=O)NCC(c1cccnc1)N(C)C (stereo not drawn) | -1% | 0.2% | i | i | 4.8e-09 |
| CCCn1c(CNS(=O)(=O)c2ccc(C)cc2)nc2ccccc21 | 24% | -0.6% | x | x | x |
| COc1ccc2cc(C#N)c(NC(C)C)nc2c1 | 6% | 13% | i | i | 7.5e-09 |
| CCn1c(SCC(=O)Nc2nc3ccccc3s2)nnc1-c1ccc(OC)cc1 | 11% | 1.9% | i | i | 3.9e-08 |
| O=C(Nc1nncs1)c1ccc(Br)c(S(=O)(=O)N2CCCC2)c1 | 7% | -5.9% | i | i | 1.7e-08 |
| Cc1ccc(-c2nnn(CC(=O)N(CC(=O)NCC3CCCO3)c3ccc(F)c(Cl)c3)n2)o1 (stereo not drawn) | 1% | 1.6% | i | i | 2.9e-08 |
| O=C(O)c1oc(C(=O)O)c(C(=O)O)c1C(=O)O | -2%[11.4 µM] | -0.4%[11.5 µM] | i | i | 1e-09 |
| Cc1ccc(-n2c(Cc3cccs3)nnc2SCC(=O)Nc2ccc(S(N)(=O)=O)cc2)cc1 | x | -0.9% | i | i | 2.9e-08 |
| O=C1CCCCCN1Sc1ccccc1 | -5% | 1.5% | i | i | 1.8e-08 |

Assay outcomes: PubChem BioAssay, National Center for Advancing Translational Sciences (NCATS)
